VDR inhibitor – blocks the human vitamin D receptor; P11473; VDR-SRC2-3 peptide fluorescence polarization, 2 h; Potency, µM, without a hit: max response, negative = inhibition, usual class: inhibitors; 0.93% of 400,000 active; AID 504847; active = well fitted inhibition curve with a large enough effect; inconclusive = small, poorly fitted or top-dose-only effect, or another doubt; inactive = no such curve, though single readings can be large or run the other way; also: series mostly up to about 120 µM
Target sequence (P11473 whole entry, looked up): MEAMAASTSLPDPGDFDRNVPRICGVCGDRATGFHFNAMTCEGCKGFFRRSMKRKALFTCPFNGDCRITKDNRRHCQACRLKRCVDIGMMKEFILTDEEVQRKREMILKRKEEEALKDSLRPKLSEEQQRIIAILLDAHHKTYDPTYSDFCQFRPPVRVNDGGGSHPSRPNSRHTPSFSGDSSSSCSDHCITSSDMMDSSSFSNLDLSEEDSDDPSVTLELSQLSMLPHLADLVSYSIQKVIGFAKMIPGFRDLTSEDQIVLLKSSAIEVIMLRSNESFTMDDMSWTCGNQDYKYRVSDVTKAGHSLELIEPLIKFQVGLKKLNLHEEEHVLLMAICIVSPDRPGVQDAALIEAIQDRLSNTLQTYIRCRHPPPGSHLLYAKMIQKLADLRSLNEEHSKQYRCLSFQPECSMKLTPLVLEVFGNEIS
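Fluorescence polarization assay of small-molecule disruption of VDR binding to coregulator peptide SRC2-3. Compounds and controls pin-transferred, then read after 2 h incubation at ambient room temperature.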
An asterisk follows results filed as active; ? = inconclusive; & = joins results of further samples. % is scaled to controls: 0 for no effect and ±100 for the full control effect; potency is read from the fitted curve at half-maximal effect. These rows are one share of the data; rates above refer to the full screens.

| molecule | VDR inhibitor |
| --- | --- |
| CC(C)C(C(=O)Nc1ccc(N2CCOCC2)cc1)N1C(=O)c2ccccc2C1=O (stereo not given) | 10% |
| NC(=O)C1CC(=O)N(c2ccc(OCc3c(F)cccc3Cl)cc2)C1 (stereo not given) | 14% |
| COC(=O)c1c(NC(=O)Cc2ccccc2)sc2c1CCN(C(C)C)C2 | -15% |
| CN(C)c1nc2c(c(=O)[nH]c(=O)n2C)n1Cc1ccc(F)cc1 | 4% |
| Cn1ccc(O)c(C#N)c1=O | -12% |
| CC(=O)OC(COC1C[C@@H]2CC[C@@]1(C)C2(C)C)C[N+]1(C)CCCCC1 (stereo not given in full) | -4% |
| CNC[C@H](CC1CCCCC1)NC[C@H](CO)NCCc1cccc(C(F)(F)F)c1 | -1% |
| Cc1ccc2cc(C(c3nnnn3CC3CCCO3)N3CCc4ccccc4C3)c(=O)[nH]c2c1 (stereo not given) | 1% |
| CCOC(=O)C1(CCOc2ccccc2)CCN(CC(O)CO)CC1 (stereo not given) | -14% |
| CCOc1ccc(CN2CCNC(=O)C2CC(=O)NCCc2nc(C)c3c(n2)CCC3)cc1 (stereo not given) | -12% |
| COC(=O)c1cc(NC(=O)Cn2nc(C)n3cccc3c2=O)cc(C(=O)OC)c1 | -2%&2% |
| O=C(Nc1ccc(Cl)cc1C(F)(F)F)c1ccccc1Cl | ? |
| O=c1cc(-c2ccccc2)nc2nc(-c3ccccc3)[nH]n12 | 0% |
| O=[N+]([O-])c1cc(-c2nc(-c3ccccc3)no2)ccc1NCC1CCCO1 (stereo not given) | 12% |
| CSc1nc(N(C)NC(=O)c2ccc(F)cc2)c2ccccc2n1 | 1% |
| Cc1cccc(-c2nc3nc(C)cc(NC(C)c4ccccc4)n3n2)c1 (stereo not given) | 11% |
| CC(C)Cc1n[nH]c(=O)[nH]1 | -22% |
| COCCOc1ccc(C(F)(F)F)cc1NC(=O)CN1C(=O)NC2(CCc3ccccc32)C1=O (stereo not given) | -9% |
| COc1ccccc1Oc1ccc2c(c1)C(=O)N(CC1CCCO1)C2=O (stereo not given) | 8% |
| O=C(NCCS(=O)(=O)NCCc1ccccc1)c1ccc2c(c1)OCO2 | 10% |
| Cn1nc(C(F)(F)F)c(C(=O)Nc2ccc(F)cc2F)c1Oc1cccc(Cl)c1 | 3% |
| CCOC(=O)c1[nH]c(C)c(CCC(=O)N2CCN(c3ccc(Cl)cc3)CC2)c1C | -5% |
| COc1ccc(N2CCN(S(=O)(=O)c3ccc(C4CCCCC4)cc3)CC2)cc1 | 14% |
| COc1ccc(CCNC(=O)CN(c2ccc(OC)c(OC)c2)S(=O)(=O)c2ccc(C)cc2)cc1 | 8% |
| CCn1c(CNc2ccc(F)cc2)nnc1SCC(=O)Nc1ccc(OC)cc1OC | 4% |
| Cc1csc(NC(=O)CSc2ccc(-c3ccc(F)cc3)nn2)n1 | -26% |
| CCCCOC(=O)c1ccc(NC(=O)c2ccc3c(c2)CCN3S(=O)(=O)c2ccccc2)cc1 | 12% |
| O=C(CSc1nnc(CCCO)n1-c1ccccc1)Nc1nccs1 | -7% |
| CCOc1ccccc1C(=O)Nc1ccc2nc(N(CC)CC)cc(C)c2c1 | -6% |
| COc1ccc(/C(C)=N/NC(=O)c2ccncc2)cc1[N+](=O)[O-] | -8% |
| O=C(CN(CC1CCCO1)S(=O)(=O)c1ccc(S(=O)(=O)NCC2CCCO2)cc1)Nc1ccccc1 (stereo not given) | 16% |
| Cc1cccc(OCC(=O)Nc2ccc(N3CCN(S(C)(=O)=O)CC3)cc2)c1C | -18% |
| CSc1ccc(C#N)cc1NC(=O)c1cccc(Cl)c1 | -1% |
| CCCCn1c(N)c(N(CCOC)C(=O)CSCc2ccc(Cl)c(Cl)c2)c(=O)[nH]c1=O | ? |
| Nc1cc(S(=O)(=O)Nc2ccccc2Cl)ccc1N1CCCC1 | 10% |
| O=C1c2ccccc2NC(c2ccccn2)N1c1ccccc1F (stereo not given) | -6% |
| Cc1cc(CNC(=O)COc2ccc(C)c(C)c2)c2ccccc2n1 | 20% |
| COc1cc2c(cc1OC)C(CCc1ccccc1)=NCC2 | 13% |
| Cc1cc(C(=O)N/N=C/c2ccc3c(c2)OCO3)c2ccccc2n1 | -8% |
| Cc1ncsc1CCOC(=O)c1cccc([N+](=O)[O-])c1 | -18%&-2% |
| N#Cc1cccnc1N1CCN(C(=O)c2cccs2)CC1 | -5% |
| O=C(NNS(=O)(=O)c1ccccc1F)c1cc(-c2ccccc2)n[nH]1 | 0% |
| O=C(CNC(=O)C1CCCCC1)NC1=NCCS1 | -4% |
| COc1ccccc1Cn1c(=O)c2ccccc2n2c(SCc3csc(C)n3)nnc12 | -5% |
| Cc1ccc(CSCCNC(=O)CN2C(=O)c3ccccc3S2(=O)=O)cc1 | -4% |
| CCC(=O)Nc1ccc(-c2nc(-c3ccccc3)n(CC(=O)N3CCCCC3)n2)cc1 | 6% |
| O=C(NCc1ccncc1)C(=O)N/N=C/c1cccnc1 | -13% |
| Cc1nn(Cc2ccccc2)c(C)c1C(=O)NCC(c1cccs1)N1CCOCC1 (stereo not given) | -5% |
| COc1cc(C(=O)Nc2cccc(-n3cnnn3)c2)cc(OC)c1OC | 6% |
| Nc1nc(NC2CCCC2)cc(=O)[nH]1 | -13% |
| Cc1cc(-c2nnco2)c(C)n1-c1ccccc1 | 0% |
| CCOCCCNC(=O)C(NC(=O)CNC(=O)c1ccccc1)c1ccc(OC)cc1 (stereo not given) | 4% |
| CCCCn1c(SCC(=O)Nc2cccc(OC)c2)nc2ccc(N3CCOCC3)cc2c1=O | -9% |
| O=C(CN(C(=O)CCC(=O)Nc1nccs1)c1ccc(F)cc1)NCCc1ccccc1 | -11% |
| Cc1cccc(Nc2nnc(SCC(=O)c3c(N)n(C4CC4)c(=O)[nH]c3=O)s2)c1 | -5% |
| CCc1nc(N)c(C#N)c(-c2ccc(F)cc2)c1C | -1% |
| O=C(COC(=O)C1CCN(c2ccc(C(F)(F)F)cn2)CC1)NCc1ccccc1 | -25% |
| Cn1cc(-c2nc3ccccc3[nH]2)c2ccccc21 | 1% |
| O=C(c1ccccc1)c1cnc(-c2ccccc2)s1 | 2% |
| Cc1cc2cc(CNC(=O)c3ccc4c(c3)OCO4)ccc2n1C | 0% |

Continuation:
| molecule | VDR inhibitor |
| --- | --- |
| COCCN1C(=O)N[C@@H](c2cccc(F)c2)C(C(C)=O)=C1C | -14% |
| CC(C)Cn1c(N)c(C(=O)COC(=O)C2CC(=O)N(Cc3ccccc3Cl)C2)c(=O)n(C)c1=O (stereo not given) | -2% |
| CCOC(=O)c1ccc(S(=O)(=O)N2CCN(C(=O)C3CSC4(C)CCC(=O)N34)CC2)cc1 (stereo not given) | 5% |
| CCNc1nc(Oc2ccc(=O)n(C)n2)nc(N2CCOCC2)n1 | 2% |
| COc1ccccc1NC(=O)Nc1ccc(Br)cn1 | -6% |
| O=C(NCCCCNC(=O)c1ccccc1Br)c1ccccc1Br | -5% |
| COc1ccc(-n2c(SCC(=O)Nc3nnc(C)s3)nc3c([nH]c4ccccc43)c2=O)cc1 | 7% |
| O=C(CCCSc1nc(-c2ccco2)cc(C(F)(F)F)n1)NCc1cccs1 | -10% |
| O=C(CNC(=O)c1ccco1)Nc1ccc(F)c(Cl)c1 | -22% |
| Cn1nc(C(F)(F)F)c(C(=O)Nc2ccc(C(F)(F)F)cc2)c1Cl | -11% |
| COc1ccc(CCC(=O)Nc2ccc(C(=O)c3ccncc3)cc2)cc1 | -4% |
| C=CCn1c(SCC(=O)NCC2CCCO2)nc2scc(-c3ccccc3)c2c1=O (stereo not given) | -17% |
| CCCC(=O)NC(c1ccc(C(C)C)cc1)c1ccc2cccnc2c1O (stereo not given) | -12% |
| O=C(Nc1ccccc1)C1Cc2ccccc2CN1C(=O)c1ccco1 (stereo not given) | 12% |
| Cc1cc(Cl)ccc1OCC(=O)N1C(C)CCCC1C (stereo not given) | -5% |
| CCOc1ccc(OCc2ccc(C(=O)N(CC)CC)cc2)cc1 | -16% |
| CC(C)Oc1ccc(S(=O)(=O)N2CCOCC2)cc1NC(=O)Cc1c(F)cccc1Cl | -1% |
| N#CC1=C(SCC(=O)NC23CC4CC(CC(C4)C2)C3)NC(=O)C(C#N)C12CCCCC2 (stereo not given) | -3% |
| CC(C)C[C@@]12C(=O)N(c3cccc(Cl)c3)C(=O)N1[C@H](c1ccc(F)cc1)[C@@H]1C(=O)N(C3CCCCC3)C(=O)[C@@H]12 | -3% |
| C[C@@]12CCC=C[C@H]1[C@H](c1ccc3ccccc3c1)N(Cc1ccccc1)C2=O | ? |
| O=C(COC(=O)c1cc(Cl)ccc1O)NCCC1=CCCCC1 | -6% |
| CC(C)(C)NC(=O)Cn1ccc(=N)c2ccccc21 | 11% |
| COc1ccc(-c2nc(CSc3nnc(C)n4c3cc3occc34)c(C)o2)cc1OC | 2% |
| CC(C)C(=O)c1ccc(O)c(O)c1 | -10% |
| COc1cc(NC(=O)CCS(=O)(=O)c2ccc(Br)cc2)cc(OC)c1 | -2% |
| Cn1c(C(=O)N2CCOCC2)cc2c(=O)n3ccccc3nc21 | 4% |
| O=C(Cc1cccc2ccccc12)Nc1ccc2oc(-c3ccccc3)nc2c1 | 11% |
| CNc1cccc2c1C(=O)c1ccccc1C2=O | -6% |
| CC1(C)Cc2c(sc(NC(=O)C3CC(Cl)=CCC3C(=O)O)c2C#N)CO1 (stereo not given) | -11% |
| O=C(NCCS(=O)(=O)N1CCN(c2ccc(F)cc2)CC1)c1cccc(C(F)(F)F)c1 | 14% |
| Cc1cc(C)n2nc(C(=O)N/N=C/c3ccccc3C)nc2n1 | -22% |
| CC(=O)C1=C(O)C(=O)N(c2ccccn2)C1c1ccc(Cl)cc1 (stereo not given) | -14% |
| Cc1ccc(C)c(N2CCN(c3nc4ccc(C)cc4nc3-n3nc(C)cc3C)CC2)c1 | -10% |
| CC(OC(=O)CNC(=O)c1ccco1)C(=O)Nc1ccc(Cl)cn1 (stereo not given) | -12% |
| CNc1nc(=O)n(C2CCCO2)cc1C (stereo not given) | 0% |
| O=C(CSc1c(F)c(F)cc(F)c1F)Nc1ccc(C2SCCS2)cc1 | 20% |
| CNC(=O)CCC(=O)Nc1ccc(C)cc1 | -13% |
| CCOC(=O)c1c(-c2ccccc2)oc2ccc(OCC(=O)NN)cc12 | -6% |
| CN1CCN(c2ccc(C(=O)c3ccccc3)cc2[N+](=O)[O-])CC1 | -11% |
| C/C=C/c1ccc(OCCCNC2CCCC2)c(OC)c1 | 2% |
| CCn1c(C(C)NC(=O)c2cccc(C)c2)nc2ccccc21 (stereo not given) | -3% |
| O=C(C1CCN(C2CC(=O)N(c3ccc(Cl)cc3)C2=O)CC1)N1CCOCC1 (stereo not given) | 13% |
| COc1ccc(-c2cc(C(F)(F)F)n3nc(C(=O)Nc4ccc(Cl)cc4C(F)(F)F)cc3n2)cc1OC | 9% |
| COC(=O)CCCC(=O)N1CCC(CCC(=O)NCc2ccc(F)cc2)CC1 | 3% |
| CCN(CC)S(=O)(=O)c1cccc(NC(=O)CNC2CCCCCC2)c1 | -3% |
| Fc1ccc(-c2nc3cnccn3c2NC2CCCC2)cc1 | -6% |
| O=C(OCc1nc2ccccc2[nH]1)C1CCCCC1 | 1% |
| OCc1ccnc2c(O)cccc12 | -11% |
| CN(Cc1ccco1)C(=O)c1ccc(N2CCCC2=O)cc1 | -9% |
| CC(OC(=O)CCCN=C1NS(=O)(=O)c2ccccc21)C(=O)Nc1ccccc1F (stereo not given) | -10% |
| COc1ccc(C2CC(=O)N(CC(=O)NCC3CCCO3)c3ccccc3S2)cc1OC (stereo not given) | 0% |
| O=C1NC2c3ccccc3C(=O)N2c2c1cnn2-c1ccccc1 (stereo not given) | -12% |
| Cc1ccc(O)c(C(=O)c2cc(C#N)c(=O)n(Cc3ccccc3)c2)c1 | -7% |
| COc1ccc2cc(-c3cn4c(n3)sc3cc(F)ccc34)c(=O)oc2c1 | 17% |
| Cc1ccc(NC(=O)c2cc(N3C(=O)C=CC3=O)ccc2N2CCOCC2)cc1 | 28µM* |
| Cc1ccc(O)c(NC(=O)c2noc3c2CCc2ccccc2-3)c1 | -7% |
| O=C1CCCC(O)=C1N=Nc1c(Cl)cc(C(F)(F)F)cc1Cl | 7% |
| CCOc1ccccc1NC(=S)NC(=O)C1CC1 | -27% |
| CC[C@H](C)/C=C(C)/C=C/C1=CC2=CC(=O)[C@]3(C)OC(=O)[C@@H](C(C)=O)[C@@H]3C2=CO1 | ? |
